Compound activity as filed in PubChem BioAssay.
Yeast UUG start = modulators of start codon recognition fidelity in yeast | S. cerevisiae UUG-firefly luciferase reporter, luminescence/redox ratio | activity score, % at 18.7 µM | hit rate 0.13% among 350,000 | AID 602363;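 active means replicate mean at a twofold rise or more, about +100% in these data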;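 further: firefly luciferase made from a UUG start codon reports start codon fidelity; reporter light over untreated wells divided by growth signal over untreated wells; some hits fall short of that in this replicate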
Env fusion inh = inhibitors of HIV Env-mediated cell fusion | AID 651610 | HeLa-JRFL Env/CEM21 cell fusion, luciferase | inhibition, % at 12.3 µM | hit rate 1.1% among 360,000;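 active means mean replicate inhibition score of at least 50 and every replicate individually at or above 50; inconclusive means only one of the two criteria met; inactive means mean below 50 and not all replicates reaching 50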;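 further: 0% = plate neutral controls and 100% = maraviroc near 300 nM; one replicate is shown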
Numbers without * were called inactive; ? = inconclusive; [ ] = remark or other dose. The list is partial; the hit share may differ from the screen's.

Sequence of screens – Yeast UUG start, Env fusion inh
COc1ccccc1C#Cc1cnc2c(c1)C(=O)N([C@@H](C)CO)C[C@H](C)[C@@H](CN(C)C(C)=O)O2
 : -5, 18[16.7 µM]
C[C@@H]1CCCCO[C@H](CN(C)Cc2ccccc2)[C@@H](C)CN([C@@H](C)CO)C(=O)c2cc(NS(=O)(=O)c3ccc(F)cc3)ccc2O1
 : 13, -9[16.7 µM]
C[C@H](CO)N1C[C@H](C)[C@@H](CN(C)C(=O)NC2CCCC2)Oc2cc(/C=C/c3ccccc3)ccc2S1(=O)=O
 : -6, ?
C[C@H](CO)N1C[C@H](C)[C@@H](CN(C)Cc2ccncc2)Oc2cc(C#CC3CC3)ccc2S1(=O)=O
 : -7, -2[16.7 µM]
COC(=O)C[C@H]1C[C@@H]2c3cc(NC(=O)Nc4ccccc4F)ccc3O[C@@H]2[C@@H](CO)O1
 : 56, 5[16.7 µM]
C[C@@H]1CN([C@H](C)CO)C(=O)c2cccc(NC(=O)c3cnccn3)c2O[C@@H]1CN(C)Cc1ccc(C(F)(F)F)cc1
 : 9, -42[16.7 µM]
O=C(Cc1ccncc1)NCC[C@H]1CC[C@H](NC(=O)Nc2ccc(Cl)cc2)[C@@H](CO)O1
 : -1, 0[16.7 µM]
C[C@@H]1CN([C@H](C)CO)C(=O)c2cc(N(C)C)ccc2O[C@@H](C)CCCCO[C@@H]1CN(C)C(=O)Nc1ccccc1
 : 12, 2[16.7 µM]
CC(C)C#Cc1ccc([C@H]2[C@@H](C#N)N(C(=O)C3CC3)[C@H]2CO)cc1
 : 6, 24[16.7 µM]
C[C@@H]1CCCCO[C@H](CN(C)C(=O)Nc2ccccc2)[C@@H](C)CN([C@@H](C)CO)C(=O)c2cc(NC(=O)CCCN(C)C)ccc2O1
 : 7, 3[16.7 µM]
CC(C)NC(=O)Nc1ccc2c(c1)C(=O)N([C@H](C)CO)C[C@@H](C)[C@H](CN(C)C(=O)Nc1ccccc1)O2
 : -1, 3[16.7 µM]
C[C@@H]1CN([C@@H](C)CO)C(=O)c2cc(C#Cc3ccccc3)cnc2O[C@H]1CN(C)C(=O)c1ccccc1
 : 21, 10[16.7 µM]
CCCNC(=O)N(C)C[C@H]1Oc2ncc(C#CCC(C)C)cc2C(=O)N([C@@H](C)CO)C[C@@H]1C
 : 5, 20[16.7 µM]
CC(C)NC(=O)Nc1ccc2c(c1)C(=O)N([C@@H](C)CO)C[C@@H](C)[C@@H](CN(C)C(=O)Nc1ccc3c(c1)OCO3)OCCCC[C@H](C)O2
 : 6, -6[16.7 µM]
C[C@@H]1CN([C@@H](C)CO)C(=O)c2cc(NC(=O)Nc3ccccc3)ccc2O[C@@H](C)CCCCO[C@H]1CN(C)Cc1ccc(C(F)(F)F)cc1
 : 12, 10[16.7 µM]
C[C@H](CO)N1C[C@H](C)[C@H](CN(C)C)Oc2ccc(NC(=O)C3CCCCC3)cc2C1=O
 : -6, 16[16.7 µM]
COCC#Cc1ccc2c(c1)O[C@@H](CN(C)CC1CCOCC1)[C@@H](C)CN([C@H](C)CO)S2(=O)=O
 : 5, 0[16.7 µM]
O=C(C[C@H]1C=C[C@H](NC(=O)C2CCC2)[C@H](CO)O1)NCCCN1CCOCC1
 : -13, 6[16.7 µM]
C[C@@H]1CCCCO[C@@H](CN(C)C(=O)c2ccccc2)[C@H](C)CN([C@H](C)CO)C(=O)c2cc(N(C)C)ccc2O1
 : 15, -109[16.7 µM]
C[C@@H]1CN([C@@H](C)CO)C(=O)c2cc(NC(=O)Nc3ccc(C(F)(F)F)cc3)ccc2O[C@@H](C)CCCCO[C@H]1CN(C)Cc1ccc(Cl)c(Cl)c1
 : -9, 26[16.7 µM]

Other records:
Sequence of screens – Yeast UUG start, Env fusion inh
C[C@@H]1CN([C@@H](C)CO)C(=O)c2cc(NC(=O)NC3CCCCC3)ccc2O[C@@H](C)CCCCO[C@H]1CN(C)CC1CCCCC1
 : 13, 7[16.7 µM]
O=C(C[C@H]1C[C@@H]2c3cc(NC(=O)c4cccnc4)ccc3O[C@@H]2[C@H](CO)O1)NCC1CC1
 : 0, -1[16.7 µM]
CC(C)CC#Cc1cnc2c(c1)C(=O)N([C@H](C)CO)C[C@H](C)[C@H](CN(C)C(=O)c1ccccc1F)O2
 : 2, -2[16.7 µM]
CCCNC(=O)C[C@H]1CC[C@@H]2[C@@H](COc3ccc(NC(=O)c4ccc(OC)cc4)cc3C(=O)N2C)O1
 : 0, 13[16.7 µM]
COc1cc2c(cc1OC)CN(C(=O)[C@@H]1[C@H]3C(=O)O[C@H](c4ccccc4)[C@H](c4ccccc4)N3[C@H](c3ccc(OCCO)cc3)[C@@]13C(=O)Nc1ccc(C#CC4(O)CCCCCC4)cc13)CC2
 : -9, 10[16.7 µM]
CCCN(C)C[C@H]1Oc2cc(-c3ccccc3)ccc2S(=O)(=O)N([C@@H](C)CO)C[C@H]1C
 : -9, 4[16.7 µM]
C[C@H](CO)N1C[C@H](C)[C@H](CN(C)C(=O)Nc2ccc(C(F)(F)F)cc2)Oc2c(NC(=O)Nc3ccc(F)cc3)cccc2C1=O
 : -19, -1[16.7 µM]
C[C@@H]1CN([C@H](C)CO)C(=O)c2cc(NC(=O)Nc3ccccc3)ccc2O[C@@H](C)CCCCO[C@@H]1CN(C)S(=O)(=O)c1ccccc1
 : -7, 6[16.7 µM]
C[C@@H]1CCCCO[C@@H](CN(C)Cc2ccc(C(=O)O)cc2)[C@@H](C)CN([C@@H](C)CO)C(=O)c2cc(NS(=O)(=O)c3ccccc3)ccc2O1
 : 7, -2[16.7 µM]
O=C(N[C@H]1CC[C@@H](CC(=O)N2CCOCC2)O[C@H]1CO)c1cccc(F)c1
 : -9, -2[16.7 µM]
CC(C)NC(=O)N(C)C[C@@H]1Oc2ccc(NC(=O)CCN3CCOCC3)cc2C(=O)N([C@H](C)CO)C[C@H]1C
 : -10, 14[16.7 µM]
C=CCCN(CC#C[C@H]1Oc2ccccc2S(=O)(=O)N2CCC[C@@H]12)S(=O)(=O)c1ccc(C)cc1
 : 9, 10[16.7 µM]
C=CC[C@@]1(C(=O)OC)N=C(c2ccc(OCCCO)cc2)O[C@@H]1c1ccccc1
 : 29, -2[16.7 µM]
C[C@@H]1CN([C@H](C)CO)C(=O)c2cc(NC(=O)Nc3ccc(F)cc3)ccc2O[C@@H]1CN(C)Cc1ccncc1
 : 5, -2[16.7 µM]
C[C@@H]1CCCCO[C@@H](CN(C)C(=O)Nc2ccc(F)cc2)[C@H](C)CN([C@@H](C)CO)C(=O)c2cc(NC(=O)CCC(F)(F)F)ccc2O1
 : 0, -23[16.7 µM]
COCC(=O)N(C)C[C@H]1Oc2cc(C3=CCCCC3)ccc2S(=O)(=O)N([C@H](C)CO)C[C@@H]1C
 : 16, -19[16.7 µM]
CC(C)NC(=O)N(C)C[C@@H]1Oc2ccc(NC(=O)C3CC3)cc2C(=O)N([C@H](C)CO)C[C@@H]1C
 : -6, -11[16.7 µM]
CCCC#Cc1cnc2c(c1)C(=O)N([C@@H](C)CO)C[C@H](C)[C@H](CN(C)C(=O)Nc1c(C)noc1C)O2
 : 18, -6[16.7 µM]
COc1ccc(NC(=O)N(C)C[C@H]2Oc3ccc(NC(=O)Cc4ccccc4)cc3CC(=O)N([C@H](C)CO)C[C@@H]2C)cc1
 : 0, -6[16.7 µM]
O=C(C[C@@H]1CC[C@@H](NC(=O)CN2CCOCC2)[C@@H](CO)O1)NCCc1ccncc1
 : 2, -2[16.7 µM]

Carrying on.
Sequence of screens – Yeast UUG start, Env fusion inh
O=C(C[C@@H]1CC[C@H](NC(=O)Nc2ccc(F)cc2)[C@@H](CO)O1)NCc1ccccn1
 : -10, -7[16.7 µM]
CCCNC(=O)N(C)C[C@@H]1Oc2cc(C#Cc3ccccn3)ccc2S(=O)(=O)N([C@H](C)CO)C[C@H]1C
 : 3, -24[16.7 µM]
COc1cccc(C#Cc2cnc3c(c2)C(=O)N([C@H](C)CO)C[C@@H](C)[C@H](CN(C)C(C)=O)O3)c1
 : -3, 0[16.7 µM]
CCc1cnc(N2[C@H](C#N)[C@H](c3ccc(C#Cc4ccccc4F)cc3)[C@@H]2CO)s1
 : -12, 10[16.7 µM]
O=S(=O)(Cc1ccccc1)NCC[C@H]1CC[C@H](NS(=O)(=O)c2ccccc2)[C@@H](CO)O1
 : -3, -12[16.7 µM]
COc1ccc(CN(C)C[C@@H]2Oc3ccc(NC(=O)C4CC4)cc3CC(=O)N([C@H](C)CO)C[C@@H]2C)cc1
 : -11, -26[16.7 µM]
O=C(C[C@@H]1C[C@H]2c3cc(NC(=O)Nc4ccc(C(F)(F)F)cc4)ccc3O[C@H]2[C@@H](CO)O1)NCC1CC1
 : -5, -1[16.7 µM]
C[C@H](CO)N1C[C@H](C)[C@@H](CN(C)C(=O)Nc2cccc3ccccc23)Oc2ccc(NC(=O)NC3CCCCC3)cc2CC1=O
 : -2, 17[16.7 µM]
O=C(C[C@@H]1CC[C@@H]2[C@H](COC[C@@H](O)CN2Cc2cc(F)ccc2F)O1)N1CCc2ccccc2C1
 : -3, 19[16.7 µM]
Cc1noc(C)c1S(=O)(=O)N(C)C[C@H]1Oc2ccc(NC(=O)Cc3cn(C)c4ccccc34)cc2CC(=O)N([C@H](C)CO)C[C@@H]1C
 : 0, -1[16.7 µM]
C[C@@H]1CN([C@H](C)CO)C(=O)c2cc(N(C)C)ccc2O[C@H]1CN(C)S(=O)(=O)c1cccs1
 : -5, 1[16.7 µM]
C[C@@H]1CN([C@H](C)CO)C(=O)c2cccc(NC(=O)C3CC3)c2O[C@@H]1CN(C)C(=O)Nc1ccccc1
 : -11, -20[16.7 µM]
C[C@@H]1CN([C@H](C)CO)C(=O)c2cc(N(C)C)ccc2O[C@@H](C)CCCCO[C@@H]1CN(C)C(=O)CCC(F)(F)F
 : 9, 16[16.7 µM]
CCS(=O)(=O)NCC[C@@H]1CC[C@@H](NS(=O)(=O)c2ccccc2C)[C@@H](CO)O1
 : -13, 6[16.7 µM]
Cc1noc(C)c1NC(=O)N(C)C[C@@H]1OCCCC[C@@H](C)Oc2ccc(NC(=O)Cc3ccccc3)cc2C(=O)N([C@@H](C)CO)C[C@H]1C
 : 1, -3[16.7 µM]
COc1ccc(S(=O)(=O)Nc2ccc3c(c2)C(=O)N([C@H](C)CO)C[C@@H](C)[C@H](CN(C)S(=O)(=O)c2ccc(F)cc2)OCCCC[C@H](C)O3)cc1
 : 3, -34[16.7 µM]
C[C@@H]1CN([C@@H](C)CO)C(=O)c2cc(C#C[C@@H](C)O)cnc2O[C@H]1CN(C)Cc1ccc(-c2ccccc2)cc1
 : 16, 13[16.7 µM]
Cc1noc(C)c1NC(=O)N(C)C[C@H]1OCCCC[C@@H](C)Oc2ccc(NC(=O)Nc3ccccc3)cc2C(=O)N([C@@H](C)CO)C[C@H]1C
 : 37, 1[16.7 µM]
CC(C)NC(=O)N(C)C[C@@H]1Oc2ccc(NS(=O)(=O)c3cccs3)cc2CC(=O)N([C@@H](C)CO)C[C@@H]1C
 : -8, -9[16.7 µM]
C[C@H](CO)N1C[C@H](C)[C@H](CN(C)S(C)(=O)=O)Oc2ncc(C#Cc3ccccc3F)cc2C1=O
 : -6, 6[16.7 µM]

Already shown: an excerpt of the list.
Sequence of screens – Yeast UUG start, Env fusion inh
C[C@H](CO)N1C[C@H](C)[C@@H](CN(C)C(=O)Nc2cccc3ccccc23)Oc2ccc(NC(=O)NC3CCCCC3)cc2CC1=O
 : -2, 17[16.7 µM]
O=C(C[C@@H]1CC[C@@H]2[C@H](COC[C@@H](O)CN2Cc2cc(F)ccc2F)O1)N1CCc2ccccc2C1
 : -3, 19[16.7 µM]
Cc1noc(C)c1S(=O)(=O)N(C)C[C@H]1Oc2ccc(NC(=O)Cc3cn(C)c4ccccc34)cc2CC(=O)N([C@H](C)CO)C[C@@H]1C
 : 0, -1[16.7 µM]
C[C@@H]1CN([C@H](C)CO)C(=O)c2cc(N(C)C)ccc2O[C@H]1CN(C)S(=O)(=O)c1cccs1
 : -5, 1[16.7 µM]

Continued.
Sequence of screens – Yeast UUG start, Env fusion inh
CCCNC(=O)Nc1ccc2c(c1)C(=O)N(C)[C@H]1CC[C@H](CC(=O)NC)O[C@@H]1CO2
 : -4, -20[16.7 µM]
N#C[C@H]1[C@H](c2ccc(C#Cc3ccccc3F)cc2)[C@@H](CO)N1C(=O)C1CC1
 : -11, 7[16.7 µM]
C[C@@H]1CCCCO[C@@H](CN(C)C)[C@@H](C)CN([C@@H](C)CO)C(=O)c2cc(NS(=O)(=O)c3ccc(F)cc3)ccc2O1
 : 0, 3[16.7 µM]
CC(C)NC(=O)N(C)C[C@H]1Oc2c(NS(=O)(=O)c3ccc(Cl)cc3)cccc2C(=O)N([C@@H](C)CO)C[C@H]1C
 : 7, -4[16.7 µM]
COc1ccc(NC(=O)Nc2ccc3c(c2)[C@H]2C[C@H](CC(=O)NC4CCCC4)O[C@@H](CO)[C@H]2O3)cc1
 : -18, -1[16.7 µM]
COc1ccc(NC(=O)Nc2ccc3c(c2)C(=O)N([C@H](C)CO)C[C@@H](C)[C@H](CN(C)S(=O)(=O)c2cccs2)OCCCC[C@@H](C)O3)cc1
 : 13, 2[16.7 µM]
C[C@@H]1CN([C@@H](C)CO)C(=O)c2cc(NC(=O)Cc3ccccc3)ccc2O[C@@H](C)CCCCO[C@@H]1CN(C)C(=O)Nc1cccc2ccccc12
 : 18, -6[16.7 µM]

Complete entries as entered above. Screens in order: Yeast UUG start, Env fusion inh
Results for `COc1ccc(NC(=O)Nc2ccc3c(c2)C(=O)N([C@H](C)CO)C[C@@H](C)[C@H](CN(C)S(=O)(=O)c2cccs2)OCCCC[C@@H](C)O3)cc1` = 13, 2[16.7 µM]
Results for `C[C@@H]1CN([C@@H](C)CO)C(=O)c2cc(NC(=O)Cc3ccccc3)ccc2O[C@@H](C)CCCCO[C@@H]1CN(C)C(=O)Nc1cccc2ccccc12` = 18, -6[16.7 µM]
